# Source: PubChem
# BasE inh: BasE siderophore biosynthesis inhibition; purified BasE, fluorescence polarization binding displacement; AID 485350; inhibition, % (no concentration beside the values); 84,000 tested, 0.1% active;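 active = both replicates above 25% with normal brightness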;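 also: 0% = negative plate control signal and 100% = positive plate control signal; stock transfer was 100 nL into about 30 µL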
# KSHV LANA nucl: inhibitors of KSHV LANA binding to nucleosomes. FITC-LANA1-23 / chicken nucleosome fluorescence polarization; stronger effect = lower value. z-score (no concentration beside the values). AID 720717. 51,000 tested, 0.3% active;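 active = both repeat wells score below -2 in polarization z-score versus plate sample wells, excluding overly bright wells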;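 also: 100 nL library stock added to about 30 µL; numbers are from one replicate; some results filed as inactive read as strong as hits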
#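 test system = FITC-LANA peptide and chicken nucleosomes | amount = 240 nM purified chicken nucleosomes (480 nM peptide binding sites), final | reagent = 50 nM FITC-LANA1-23 probe | medium = TEN-BT buffer, pH 7.5 | doses = single compound addition by pin transfer, 100 nL per well | timing = 10–45 min, room temperature | detection = fluorescence polarization | repeats = duplicate plates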
# * = called active by the depositor; · = no result given.
molecule,BasE inh,KSHV LANA nucl
CC(=O)Nc1ccc(-c2nc(-c3ccco3)c(-c3ccco3)[nH]2)cc1,0.2,·
CCOC(=O)c1cccc(NC(=O)n2ncc3cc(Cl)ccc32)c1,-0.9,2.26
COc1ccc(OC)c(CNC(=O)C2CCCN(c3nc4ccccc4o3)C2)c1 (stereo not given),5.1,-0.697
CCn1cc(/C=C(\NC(=O)c2ccco2)C(=O)N2CCc3ccccc32)c2ccccc21,-2.2,2.03
COc1cccc(-c2nnc(SCC(=O)N3c4ccccc4Sc4ccccc43)o2)c1,-1.0,0.915
CCOc1ccccc1-n1c(SCC(=O)NCc2ccco2)nc2ccccc2c1=O,1.2,·
O=C(NCCc1ccc(C(F)(F)F)cc1)C1CC(=O)N(c2ccc3c(c2)OCCO3)C1 (stereo not given),1.8,·
Cc1nn(-c2ccccc2)c(Oc2ccc(F)cc2)c1/C=N/NC(N)=O,-4.1,·
Cn1c(-c2cc3ccc(O)c(CN4CCCCCC4)c3oc2=O)nc2ccccc21,4.1,-0.631
CCn1c(=O)c(=O)[nH]c2cc(C(=O)Nc3ccccc3N3CCOCC3)ccc21,-5.4,·
NC(=O)N1CCCC1=O,-1.8,1.41
CN(C)CCNc1nsc2ccccc12,-3.0,·
Cn1nc(CC(=O)Nc2ccc3c(c2)CCC3)c2ccccc2c1=O,2.8,-0.633
Cc1[nH]c2ccccc2c1C(=O)CSc1ncccn1,-2.3,·
O=C(CSc1ccccc1C(=O)O)NCC1CCCCC1,0.8,·
CCNc1nc(NCC)nc(N2n3c(nc4sc5c(c4c3=O)CCCC5)SCC2(O)c2ccc(OC)cc2)n1 (stereo not given),3.0,-1.11
COc1ccc(NC(=O)c2cccc3c2C(=O)N(C2CCCCC2)C3)cc1,2.5,-0.671
O=C(CSc1ncnc2sc(-c3ccccc3)cc12)c1ccc2c(c1)OCCO2,3.0,·
CC(C)(CNC(=O)c1cn(-c2ccccc2)nc1-c1ccccc1)N1CCOCC1,0.3,·
CN1C/C(=C/c2cccnc2)C(=O)/C(=C/c2cccnc2)C1,-0.2,0.024
CCOC(=O)c1c(C)[nH]c(C)c1S(=O)(=O)N1CCc2ccccc21,-2.0,·
Cc1cc(Oc2ccc3oc4ccccc4c3c2)n2ncnc2n1,-2.9,·
O=C(O)c1ccc(=O)n(CCOc2ccccc2)n1,0.9,·
CC1=C(c2ccc(C)cc2)S(=O)(=O)N=C1N1CCCCC1C (stereo not given),2.2,0.27
O=C(OCC(F)(F)C(F)F)c1ccc(C(=O)OCC(F)(F)C(F)F)cc1,-1.7,-0.0545
CCOc1ccccc1OCC(=O)N(C)Cc1ccc2c(c1)OCCO2,-2.3,·
COc1ccc(-c2n[nH]c(=S)n2Cc2ccccc2)cc1OC,-0.6,-0.307
CC1(C)Cc2c(sc(N)c2C(=O)O)CO1,1.8,-0.203
CN(Cc1ccccc1)C(=O)c1cn(C)c2ccc(S(=O)(=O)N3CCCC3)cc2c1=O,2.8,0.79
Cc1ccc(-n2cnc3ccccc3c2=O)cc1C,-0.3,-0.14
O=c1[nH]c2nc3ccccc3n2c2ncccc12,2.7,·
Cc1ccccc1C1C=C(c2ccc(F)cc2)Nc2ncnn21 (stereo not given),3.3,-1.56
CCOC(=O)N1CCN(C(=O)CSc2nnc3[nH]c(=O)cc(-c4ccccc4)n23)CC1,1.6,-0.776
Oc1[nH]c(=S)sc1C=Nc1ccccc1,-3.5,·
COc1ccc(CCn2c(=O)c3cccnc3n(CC(=O)NCc3ccc(C)cc3)c2=O)cc1OC,-0.6,-1.16
COc1ccc(OC)c(CNCCCO)c1,6.4,0.466
Cc1nn2c3ccccc3nc2n(Cc2ccccc2)c1=O,3.5,-0.47
COc1ccc(-c2noc(CCCCCNC3CCSC3)n2)cc1 (stereo not given),-4.8,·
O=C(O)NC(=O)c1ccccc1,0.3,·
CCN1CCCC1CNC(=O)c1cc(S(=O)(=O)CC)c(N)cc1OC (stereo not given),·,0.435
O=c1c(=O)n2c(nn1CN1CCOCC1)sc1ccccc12,-0.8,·
CCn1c2ccccc2c2cc(NC(=O)C3SC(=Nc4ccc(Cl)cc4)C(C(=O)NCc4ccco4)=C3N)ccc21 (stereo not given),1.1,·
CCn1c(SCC(=O)Nc2nc(C)cs2)nnc1C(C)Oc1ccccc1 (stereo not given),-1.0,-1.22
CC1=CC(C)(C)SC(N)=N1,-0.2,-0.611
CCOc1ccc(-c2cc(C(=O)OC)on2)cc1,1.4,0.203
O=C(CSc1nnc2[nH]c(=O)ccn12)NCc1ccc2c(c1)OCO2,-1.3,0.566
CC(C)C(C)(C#N)NC(=O)CSc1nnc(-c2cccc(S(=O)(=O)N3CCOCC3)c2)n1-c1ccc(F)cc1 (stereo not given),1.9,·
COc1ccc(CCn2c(C)cc(C(=O)CSc3nnnn3-c3ccccc3)c2C)cc1,0.9,·
O=C(COc1ccccc1)NCC(=O)N1CCCC1,2.9,·
c1ccc(N2CCN(c3nc4ccccc4[nH]3)CC2)nc1,2.8,0.101
C=CCN(CC=C)C(=O)COc1ccc(Cl)cc1Cl,-1.1,-0.0955
NC(=O)C1CCN(Cc2nc3cc(Cl)ccc3c(=O)[nH]2)CC1,-5.2,·
COCC(C)N=C1NC(=O)C(CC(=O)Nc2cc(C)c(Cl)cc2OC)S1 (stereo not given),-2.7,·
O=S(=O)(NCCc1csc(-c2ccccc2)n1)c1ccccc1,-1.8,0.621
CCC(CO)Nc1ncnc2onc(-c3ccc(F)cc3)c12 (stereo not given),0.0,·
FC(F)(F)c1nc(Sc2nnc(C3CC3)o2)c2ccccc2n1,-1.3,·
CCCCN1C2=NC(=O)CN2c2ccccc21,-2.8,0.909
Cc1nn(C)c(C)c1Sc1ccc(Br)cc1,1.4,-0.452
CN(C)S(=O)(=O)N1CCN(Cc2ccccc2)CC1,-1.4,-0.574
Cc1cc(C)nc(OC(=O)c2ccc(Cl)cc2Cl)n1,·,-0.654

# Some of the entries above, reformatted:
# Each structure is followed by: BasE inh | KSHV LANA nucl
CN(C)S(=O)(=O)N1CCN(Cc2ccccc2)CC1
 : -1.4 | -0.574
O=C(COc1ccccc1)NCC(=O)N1CCCC1
 : 2.9 | ·
CC(C)C(C)(C#N)NC(=O)CSc1nnc(-c2cccc(S(=O)(=O)N3CCOCC3)c2)n1-c1ccc(F)cc1 (stereo not given)
 : 1.9 | ·

# Next part:
molecule,BasE inh,KSHV LANA nucl
CCOC(=O)N1CCN(Cc2ccccn2)CC1,4.6,-0.992
Cc1oc(=O)c(NC(=O)c2ccccc2)cc1C(=O)c1ccccc1,·,-1.33
N#C/C(=C\c1ccc(-c2cccc(C(=O)O)c2)o1)C(=O)NC1CCCCC1,2.1,-0.602
CCN1CCCC1CNS(=O)(=O)c1cc(-c2cc(C)no2)ccc1C (stereo not given),-9.6,·
CC1CCN(C(=O)c2ccccc2NC(=O)c2cccnc2)CC1,2.9,-0.373
Cc1ccc(Nc2nnc(C(C)(C)C)c(=O)[nH]2)c(C)c1,-1.4,-0.22
COC1CC(O[C@@H]2[C@H](C)[C@H](OC3OC(C)CC(N(C)C)C3OC(C)=O)[C@H](C)CC3(CO3)C(=O)[C@@H](C)C(OC(C)=O)[C@H](C)[C@H](C)OC(=O)[C@@H]2C)OC(C)C1OC(C)=O (stereo not given in full),-8.9,0.307
COC(=O)C1CCCc2c1[nH]c1ccc(Cl)cc21 (stereo not given),0.2,0.296
CC1(C)CC(=O)c2cc(OCC(=O)NCc3cccnc3)ccc2O1,1.0,0.087
CCC(CC)C(=O)Nc1nonc1-c1ccccc1,-2.6,1.08
COC(=O)c1cnn(-c2ccccc2)c1C=Nc1ccc(C)cc1,2.6,·
COc1ccccc1C(=O)OCC(=O)N(C)Cc1ccccc1,3.6,·
O=C(NCc1ccc(Cl)cc1)c1cccnc1SC(F)F,0.9,·
Cc1nc2sccn2c(=O)c1S(=O)(=O)NCC(C)c1ccccc1 (stereo not given),1.1,0.297
CCCCNC(=O)C1CCCN(S(=O)(=O)c2c(C)noc2/C=C/c2cccs2)C1 (stereo not given),1.3,-1.61
CC(C)NC(=O)NNc1ccc(-c2csnn2)cc1,3.5,-0.82
Cc1occc1C(=O)NC1CCCc2ccccc21 (stereo not given),2.2,-0.423
COC(=O)C1=C(C)N=c2s/c(=C3\C(=O)Nc4ccccc43)c(=O)n2C1c1ccccc1 (stereo not given),1.6,0.475
NC(=O)NC1CCS(=O)(=O)C1 (stereo not given),0.1,-0.0695
CCc1ccc2[nH]c(=O)c(CNCCO)cc2c1,-1.1,-0.459
Cn1c(=N)n(CCOc2ccccc2Cl)c2ccccc21,-6.9,·
CCOc1ccc(NC(=O)c2c[nH]n3c(=O)cc(C4CCN(C(=O)OC(C)(C)C)CC4)nc23)cc1,1.8,0.17
CCOC(=O)N1CCN(S(=O)(=O)c2ccc(F)c(C(=O)Nc3ccc(C(F)(F)F)cc3)c2)CC1,1.4,0.476
CCOC(=O)C1CCCN(C(=O)c2cc(-c3ccco3)nc3ccccc23)C1 (stereo not given),5.2,·
C(=N\N=C\c1cccs1)/c1cccs1,2.4,-0.439
COc1ccc2nc(NC(=O)CCNS(=O)(=O)c3cccc4nsnc34)sc2c1,4.0,0.158
CCN1CCc2c(sc3nc(=S)[nH]c(N)c23)C1,0.5,0.187
O=C(O)C1CCCN1C(=O)c1cncc(Br)c1 (stereo not given),0.1,1.05
O=C(Cn1nnc(COc2ccccc2)n1)Nc1cccc(C(=O)NC2CC2)c1,-2.2,·
O=C(O)c1ccccc1Oc1ccccc1,-0.4,0.118
O=C(O)CCCC(=O)Nc1cccc2cccnc12,1.0,·
Cc1csc2nc(CCNC(=O)c3cccs3)cn12,1.2,0.241
Cc1oc(CC(C)C)cc1C(=O)N1CCN(C(=O)c2cc(CC(C)C)oc2C)CC1,1.9,-0.929
Cn1c(=NC(=O)COc2ccccc2)sc2cccc(F)c21,0.5,-1.14
CC(C)C(NS(=O)(=O)c1ccc2c(c1)OCCO2)C(=O)OCc1nnc(-c2ccccc2)o1 (stereo not given),0.4,·
CCN(CC)C1=CC2=CC(=C(C#N)C#N)CCC2CC1 (stereo not given),16.6,·
CCCCn1c(NN)nc2sc3c(c2c1=O)CCCC3,1.4,·
COc1ccc2[nH]c(-c3ccccc3)cc2c1,·,-0.914
CS(=O)(=O)c1ccccc1C(=O)Nc1ccc(C#N)cc1,-1.1,·
CCCCNC(=O)c1cn(C)c2ccc(S(=O)(=O)N(CC)CC)cc2c1=O,0.0,0.528
Cn1c(N)c(C(=O)COC(=O)C2CCN(S(=O)(=O)c3cccs3)CC2)c(=O)n(C)c1=O,2.3,·
c1ccc2c(c1)NC(c1ccc3c(c1)OCO3)S2 (stereo not given),-2.1,·
Cc1c(C#N)sc(C#N)c1C,-0.3,-0.0255
CC(=O)Nc1ncc(Cc2ccccc2F)s1,2.2,0.0185
NC(=O)COC(=O)CCc1nc2ccccc2c(=O)[nH]1,1.6,·

# Single records (already shown):
# `Cc1csc2nc(CCNC(=O)c3cccs3)cn12` reads BasE inh: 1.2; KSHV LANA nucl: 0.241
# `CCN(CC)C1=CC2=CC(=C(C#N)C#N)CCC2CC1` (stereo not given) reads BasE inh: 16.6; KSHV LANA nucl: ·

# 3 structures already listed, sorted by count of non-hydrogen atoms, lowest first.
molecule,BasE inh,KSHV LANA nucl
c1ccc2c(c1)NC(c1ccc3c(c1)OCO3)S2 (stereo not given),-2.1,·
O=C(O)CCCC(=O)Nc1cccc2cccnc12,1.0,·
CCN(CC)C1=CC2=CC(=C(C#N)C#N)CCC2CC1 (stereo not given),16.6,·

# Other results:
molecule,BasE inh,KSHV LANA nucl
CCCC(=O)Nn1c(=O)[nH]c2ccccc2c1=O,-0.1,-0.559
CN=C(Nc1ccc(C(=O)NC)cc1)c1ccccc1,0.0,·
C=C(C)C1CC=C(C)/C(=N/NC(=O)c2ccncc2)C1 (stereo not given),-0.6,-0.785
Cc1nc2ccc(Nc3nc4cc(Cl)ccc4o3)cc2s1,1.0,·
N#Cc1cnc(Sc2nnc(-c3ccncc3)n2-c2ccccc2)nc1N,-2.5,·
CN(C)CC/C=C1/c2ccccc2Sc2ccc(Cl)cc21,-9.6,-0.29
Nc1ccc(S(=O)(=O)NCC(F)(F)F)cc1,-0.1,·
CCN1CCN(C(=O)C(C)NS(=O)(=O)c2ccc(OC)c(C)c2)CC1 (stereo not given),-0.9,0.802
O=C1Nc2cc(C(F)(F)F)ccc2N2CCCCC12 (stereo not given),·,0.482
COc1ccc(CN(C)C(=O)[C@H](Cc2ccccc2)NC(=O)c2ccco2)c(OC)c1,-1.8,·
CC(=O)N1N=C(C)CC1C1C(C)C=C(C)CC1C (stereo not given),1.6,-0.467
NC(=O)C1CCN(c2csc3ccccc3c2=O)CC1,2.3,-0.631
CCCCn1c(N)c(N(CCOC)C(=O)CN2CCCc3cc(C)ccc32)c(=O)[nH]c1=O,-0.7,·
COc1cccc2c1c(NC(=O)CCC(=O)O)nn2C,2.3,·
CC(C)(C)c1cc(C(=O)Oc2cccc(C(F)(F)F)c2)n(Cc2ccccc2)n1,2.0,·

# This is a subset (hit frequency here may not be typical).
